Screens as filed in PubChem BioAssay.
AF4-AF9 inh: blocks AF4 peptide binding to human AF9. AID 651704. inhibition, % at 10 µM. P42568. 350,000 tested, 0.47% active. AlphaScreen, biotin-AF4 peptide binding to FLAG-AF9;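 active = every replicate reaching a set inhibition limit, whatever the replicate mean, cut at about 25% in these data; inconclusive = mean inhibition reaches that limit but some replicates miss it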;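 also: 0% = plate neutral control median and 100% = total signal loss; the record names both 10 and 1 µM as test concentration; the first replicate is given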
LANA-H2A inh: blocks KSHV LANA binding to histone H2A/H2B; Q9QR71; cell-free LANA-H2A/H2B peptide, fluorescence polarization; inhibition, % (test concentration not listed); 320,000 tested, 0.6% active; AID 2629; in the data active = inhibition mostly above about 10%, no sharp cut-off; inactive = mostly below about 6.7%;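 also: stock transfer was 7.5 nL into about 10 µL; 0% = median of vehicle wells and 100% = median of positive control wells; one replicate is shown; the record names a cut of 25% in any replicate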
Target sequence (Q9QR71 whole entry, looked up): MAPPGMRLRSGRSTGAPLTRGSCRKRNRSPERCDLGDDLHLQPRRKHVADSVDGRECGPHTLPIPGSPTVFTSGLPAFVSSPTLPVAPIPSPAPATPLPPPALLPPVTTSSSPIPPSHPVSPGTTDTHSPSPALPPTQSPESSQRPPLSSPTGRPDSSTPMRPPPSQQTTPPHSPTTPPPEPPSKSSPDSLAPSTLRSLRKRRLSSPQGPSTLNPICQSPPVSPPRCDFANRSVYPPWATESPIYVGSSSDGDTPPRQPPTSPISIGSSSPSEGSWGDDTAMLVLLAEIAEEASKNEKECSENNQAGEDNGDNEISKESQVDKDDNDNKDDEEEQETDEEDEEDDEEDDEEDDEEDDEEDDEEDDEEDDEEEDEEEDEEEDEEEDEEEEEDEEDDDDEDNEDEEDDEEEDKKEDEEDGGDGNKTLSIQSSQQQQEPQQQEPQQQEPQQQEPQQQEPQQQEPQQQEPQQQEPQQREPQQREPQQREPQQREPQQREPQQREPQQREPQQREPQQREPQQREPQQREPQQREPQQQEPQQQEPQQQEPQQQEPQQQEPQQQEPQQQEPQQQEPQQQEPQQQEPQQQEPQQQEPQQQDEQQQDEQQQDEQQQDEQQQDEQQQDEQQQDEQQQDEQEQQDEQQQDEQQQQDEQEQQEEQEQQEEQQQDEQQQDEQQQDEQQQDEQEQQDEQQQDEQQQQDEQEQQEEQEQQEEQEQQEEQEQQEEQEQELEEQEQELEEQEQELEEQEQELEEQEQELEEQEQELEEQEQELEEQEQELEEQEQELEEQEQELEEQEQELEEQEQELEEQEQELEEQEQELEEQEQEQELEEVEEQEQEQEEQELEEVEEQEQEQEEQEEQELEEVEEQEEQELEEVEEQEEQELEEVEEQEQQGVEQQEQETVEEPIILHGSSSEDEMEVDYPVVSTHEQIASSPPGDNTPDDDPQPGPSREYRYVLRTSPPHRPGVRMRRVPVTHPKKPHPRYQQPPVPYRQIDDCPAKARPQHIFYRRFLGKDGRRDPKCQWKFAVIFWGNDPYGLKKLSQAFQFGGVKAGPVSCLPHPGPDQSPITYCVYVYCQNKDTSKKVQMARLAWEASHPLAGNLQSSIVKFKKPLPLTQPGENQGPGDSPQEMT
Beta cell apopt: blocks beta cell apoptosis; 300,000 tested, 0.8% active; INS-1E cytokine-induced death, ATP luminescence, 48 h; percent of positive-control rescue, neutral wells zero; AID 435005; protection from apoptosis, % (concentration not given with the values);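 active = all replicates at 75% or more, or half of them and the mean; inconclusive = half reach 75% but not the mean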;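 also: 0% = cytokine-treated negative control wells and 100% = positive control rescue; higher means more ATP so stronger rescue from cytokine killing; wells of about 40 µL received 100 nL stock; the first replicate is given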
RanGTP-Impb inh: inhibitors of RanGTP-importin-beta interaction, primary screen, biochemical, FRET, CFP-Ran, YFP-importin-beta, homogeneous. 300,000 tested, 1.1% active. inhibition, % (no concentration beside the values). cell-free CFP-Ran/YFP-importin-beta FRET ratio;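 active = most replicates above 15%; inconclusive = exactly half above 15%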;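 also: 0% = DMSO wells and 100% = Ran loaded with GDP instead of GTP; wells of about 40 µL received 100 nL stock; the first replicate is given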
Calb FLC: affects C. albicans growth with fluconazole; C. albicans CaCi-2 (fluconazole-resistant clinical isolate) + fluconazole, Alamar Blue growth, 48 h; growth inhibition, % (test concentration not listed); 300,000 tested, 0.57% active; AID 1979;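 active = most replicates above 75%; inconclusive = exactly half above 75%; inactive = most below 75%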;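 also: all wells also contain fluconazole at 8 µg/ml as a sub-toxic cotreatment; 0% = median of DMSO wells and 100% = median of geldanamycin control wells; wells of about 8 µL received 7.5 nL stock; the first replicate is given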
T cruzi inh: blocks replication of Trypanosoma cruzi | T. cruzi beta-gal in NIH3T3, luminescence, 90 h | inhibition, % (test concentration not listed) | 300,000 tested, 1.4% active | AID 1885;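 active = mean inhibition across valid replicates above about 55%, limit read from the data; inconclusive = mean below that limit but half or more replicates reach it; inactive = mean below it, under half of replicates reach it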;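 also: signal also drops with host cell toxicity which is not excluded here; 0% = plate median of DMSO wells and 100% = zero luminescence signal; higher percent means less beta-gal luminescence so fewer parasites; stock transfer was 50 nL into about 50 µL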
Vif A3G: inhibitors of Vif binding to APOBEC3G peptide, primary screen, biochemical, TR-FRET, GST-Vif 1-94, biotin-A3G peptide, dose response retest (AID 1117319); TR-FRET GST-Vif / biotin-A3G peptide binding; higher % means a stronger effect; test concentration not given here; strong numbers were not always called active; inhibition, %, or IC50 in µM where a hit was titrated; 260,000 tested, 0.57% active;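 active = above the screen mean plus three standard deviations and confirmed in dose response; inconclusive = results disagree or hit not tested in dose response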;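 also: Vif residues 1-94 fused to GST binding biotinylated APOBEC3G peptide 110-148; 0% = full assay without inhibitor and 100% = GST in place of GST-Vif; retest series ran down from 100 µM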
Bfl-1 A1 inh: inhibitors of the anti-apoptotic protein A1, read as caspase activation; MEF A1-2A-BIM cells, Caspase-Glo 3/7 luminescence, 3 h; percent of clofoctol response, vehicle zero; caspase activation, % (no concentration beside the values); 330,000 tested, 0.066% active;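 active = over half of replicate activation scores above 10%, or exactly half above 10 with the replicate mean above 10; inconclusive = replicate mean below 10 yet half the replicates above 10; inactive = over half of replicates below 10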;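 also: wells of about 30 µL received 50 nL stock; many hits fall short of the cut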
Starred values were filed as active, the others as inactive; u = inconclusive; x = not tested or not shown; & = joins results of further samples. Compounds were not picked by outcome (roughly 4.3% active in at least one column).

SMILES	AF4-AF9 inh	LANA-H2A inh	Beta cell apopt	RanGTP-Impb inh	Calb FLC	T cruzi inh	Vif A3G	Bfl-1 A1 inh
O=C(COC(=O)c1cc[n+]([O-])cc1)Nc1ccccc1Sc1ccccc1	-1.6	140*	-19	1.0	u	2	29%	-1.2
Cc1ccc(Sc2ccc(S(=O)(=O)Nc3ccc(CC(=O)O)cc3)cc2)cc1C	0.7	-2.6	5	x	x	x	3%	0.2
CCOc1ccc2[nH]c(=O)c(CN(CCCN3CCOCC3)Cc3nnnn3Cc3ccc(OC)cc3)cc2c1	0.4	-2.8	3	-2.3	u	8	-3%	-0.4
COc1ccc(C2=NS(=O)(=O)N(C)C(C(=O)N3CCc4ccccc4C3)=C2)cc1OC	1.0	-1.4	25	5.7	30	9	x	-0.2
CCN1CCN(c2ccc(S(=O)(=O)N3CCCCC3)cc2NC(=O)c2cccc(C(F)(F)F)c2)CC1	7.9	x	-3	2.7	3	68*	1%	-0.3
CN(C)S(=O)(=O)N1CCN(C(=O)N2CCOCC2)CC1	x	4.0	-2	-0.1	19	-5	-6%	1.7
CCn1cc(CNC(=O)c2ccc3nc(Cc4ccccc4F)oc3c2)cn1	-2.4	-7.1	5	5.2	-6	-14	x	0.5
CCC1(c2ccccc2)NC(=O)N(CC(=O)Nc2cc(S(=O)(=O)N3CCCCC3)ccc2OC(C)C)C1=O (stereo not given)	1.2	2.2	9	4.7	3	15	-2%	-0.1
NNC(=O)c1ccc(CSc2n[nH]c(=O)[nH]c2=O)cc1	x	2.6	-1	4.4	3	-3	15%	-0.3
C[C@H](CO)N1C[C@H](C)[C@@H](CN(C)Cc2ccc(C(=O)O)cc2)Oc2c(NS(=O)(=O)c3ccccc3)cccc2C1=O	-4.0&4.5	3.8	-3	x	x	x	x	-0.3
COc1cc(C2CC(c3cccs3)=NN2C(=O)CCl)ccc1OC(F)F (stereo not given)	0.2	-5.4	x	-2.5	-6	61*	x	u
Cn1c(Nc2cccc(Cl)c2)nc2ccccc21	-1.5	5.2	5	1.8	6	2	x	-0.9
Nc1scc2c(C(=O)O)nn(-c3ccccc3)c(=O)c12	-18	5.7	-4	x	x	x	x	-0.1
COc1ccccc1/C=N/NC1=NCCCCC1	x	5.3	6	1.5	-19	-24	1%	0.3
CN(C)c1ccc(/C=N/NC(=O)c2ccc3c(c2)OCO3)cc1	-7.2	10	3	1.1	4	-5	-1%	-11
Clc1ccc(-n2nnnc2-c2ccccc2)cc1	x	-10	2	x	x	x	5%	1.1
Cn1cc(SCC(=O)NCC2CCCO2)c2ccccc21 (stereo not given)	-12	4.1	1	3.7	-7	-8	1%	1.6
COc1ccccc1NC(=S)NCCc1ccc(OC)c(OC)c1	1.0	-1.7	1	2.7	-8	-21	4%	0.9
O=C(N/N=C/c1ccc([N+](=O)[O-])o1)c1cn(-c2ccccc2)nc1-c1ccc(Cl)cc1	-2.3	1.3	14	-1.7	-4	64*	24%	0.1
Cc1cccc(NC(=O)C2CCN(S(=O)(=O)c3cccs3)CC2)c1	x	-0.8	2	-2.5	-9	13	-4%	-0.1
COc1ccc(OC)c(C(=O)c2oc3ccccc3c2NC(C)=O)c1	x	1.5	-2	-3.6	7	-6	-6%	0.8
O=C(O)c1ccc(Cl)c(NCc2cccnc2)c1	-8.2	-1.1	-5	u	-3	11	-8%	0.7
O=C(N/N=C/c1cc2c3c(c1O)CCCN3CCC2)c1ccccc1O	-0.4	x	x	-7.3	108*	59*	x	x
CCCNC(=S)N(Cc1cc2cc(C)ccc2n2nnnc12)CC(C)(C)CN(C)C	-0.3	2.4	4	-0.8	-32	1	x	-1.1
Fc1ccc(CN2CCN(c3ncnc4scc(-c5ccccc5)c34)CC2)cc1	u	-3.2	15	3.9	14	49	24%	-0.2

Following part
SMILES	AF4-AF9 inh	LANA-H2A inh	Beta cell apopt	RanGTP-Impb inh	Calb FLC	T cruzi inh	Vif A3G	Bfl-1 A1 inh
O=C(COC(=O)c1c(F)cccc1F)NCCNC(=O)COC(=O)c1c(F)cccc1F	-0.1	3.1	3	1.1	4	-1	5%	0.1
O=C(O)c1cc(-c2ccco2)nc2ccc(Br)cc12	x	1.5	0&4	-4.3&3.5	13&4	-28&-19	28%&-52%	0.2&0.0
c1ccc(Cc2noc(CN3CCN(CCOc4ccccc4)CC3)n2)cc1	-1.7	-8.8	4	-17	1	57*	-5%	0.0
COc1ccc(/C(N)=N/OC(=O)c2ccc([N+](=O)[O-])c(C)c2)cc1OC	-0.2	-2.1	-13	-1.8	42	6	2%	-0.4
COc1cc2[nH]cc(C(=O)NCc3ccccc3)c(=O)c2cc1OC	1.6	2.1	2	0.4	0	2	x	-0.4
CN(C)CCN1CC(C(=O)O)CC1=O (stereo not given)	x	4.9	-5	2.8	-5	-2	4%	0.1
Cc1ccc(Cl)cc1N1CCN(S(=O)(=O)c2cc3c(cc2C)NC(=O)CO3)CC1	8.9	4.6	2	-0.5	-6	20	x	0.7
CCN1CCN(C(=O)C2=CC(c3ccc(OC)cc3)=NS(=O)(=O)N2C)CC1	-4.5	-1.3	-9	-0.9	-2	-11	x	0.3
Cc1ccc(NCc2ccc(O)c3ncccc23)cc1	2.1	1.3	2	2.5	64*	2	-9%	-0.7
C=CCn1c(CCNC(=O)C(C)(C)C)nc2ccccc21	x	3.0	2	4.6	14	-21	-4%	0.1
Nc1c(Cl)cc(-c2csc(NCCc3nc4cc(Cl)c(Cl)cc4n3CCCO)n2)cc1Cl	-2.2	1.6	-8	3.7	9	24	x	0.9
Cc1nc(NC(=O)c2ccc(OCC(C)C)cc2)sc1Cc1ccc2c(c1)OCO2	13	5.1	11	-1.4	6	49	x	-0.4
CCc1cc(=O)oc2cc(C)c(CN3CCCC3)c(O)c12	x	1.8	4	-7.1	-17	2	4.1µM*	0.2
CCCNC(=O)CN1C(=O)NC(CCc2ccccc2)C1=O (stereo not given)	-1.9	3.7	3	2.0	17	8	-6%	-0.7
O=C(Nc1nc2cc(Cl)ccc2s1)C1CCCN(S(=O)(=O)c2cccc3cccnc23)C1 (stereo not given)	x	-1.0	-7	0.1	-2	28	3%	-0.7
Cc1onc(-c2ccccc2)c1C(=O)NCCSCc1ccco1	-7.5	-5.4	-1	x	x	x	x	1.2
Cc1cc(NS(=O)(=O)c2ccc(NC(=O)CCCOc3ccccc3C)cc2)nc(C)n1	1.3	1.6	-4	u	1	-16	x	0.1
CCN(CC)c1ccc(/C=N/Nc2nc(C)cc(=O)[nH]2)c(O)c1	9.3	2.5	61	-6.0	102*	42	20%	-0.2
Cc1c(NC(=O)c2cc3nc(-c4ccc(Br)cc4)cc(C(F)(F)F)n3n2)c(=O)n(-c2ccccc2)n1C	x	-0.3	-2	4.0	22	10	9%	-0.6
CC(C)C(=O)Nc1ccc(C(=O)c2ccccc2)cc1	x	-1.6	-1	0.4	-34	1	x	0.0
COc1ccc2c(c1OC)CN1CCc3cc4c(cc3[C@@H]1[C@@H]2O)OCO4	x	0.5	0	-3.3	-1	38	-10%	0.0
COCC(C)n1c(C)cc(C(=O)COC(=O)c2cc(=O)[nH]c3ccccc23)c1C (stereo not given)	3.2	-0.8	3	x	x	x	x	-4.6
Cc1ccc(C)c(N2CCN(C(=O)c3ccc4c(c3)c(C)c(C)n4C)CC2)c1	0.1	2.5	-5	5.8	-9	14	x	-0.6
CC(=O)c1ccc(N2CCCCCC2)c(F)c1	x	-9.6	-5	5.8	-4	-18	3%	-0.4
CCn1cc(C(=O)O)c(=O)c2cc(F)c(N3CCNCC3)cc21	x	71*	x	u	x	-4	-2%	x

Remaining list, next part
SMILES	AF4-AF9 inh	LANA-H2A inh	Beta cell apopt	RanGTP-Impb inh	Calb FLC	T cruzi inh	Vif A3G	Bfl-1 A1 inh
O=c1cc[nH]c2c(Cl)cccc12	-2.2	-2.2	-6	1.7	3	-1	2%	-0.3
CCOc1ccc(NC(=O)CCn2c(=O)[nH]c3ccsc3c2=O)cc1	x	-2.2	-7	-2.3	-3	-7	-8%	-0.1
CCOC(=O)C(c1ccccc1)C(Nc1ccc(Cl)c(Cl)c1)c1ccccn1 (stereo not given)	-0.8	-1.5	-6	-2.5	0	3	x	0.4
CN(C)c1cccc2cccc(N(C)C)c12	x	-3.2	2	4.0	41	4	-4%	0.1
COc1ccc(NC(=O)Nc2nc3c(s2)CCCC3)cc1	-5.1	-3.9	7	0.5	80*	19	x	-0.1
Nc1cccc2c1C(=O)N(C(=O)c1ccc(Cl)c(S(=O)(=O)N3CCCCCC3)c1)C2=O	x	1.6	x	20*	-3	-6	6%	0.2
CCOc1ncccc1C(=O)OCC(=O)N1CCC(C)CC1	0.4	-1.6	-15	x	x	x	x	-0.3
CN(C)/C=C/C(=O)c1ccc(S(=O)c2ccccc2)cc1 (stereo not given)	-0.2	-3.9	2	-4.7	16	-12	3%	-0.4
C/C(=N\NC(=O)c1cc(O)cc(O)c1)c1ccc(NC(=O)Cc2ccccc2)cc1	-0.5	0.9	0	-5.6	-10	6	x	0.7
CCn1c(C)nc2cc(C(=O)NNC(=O)c3ccc(C)cc3)ccc21	0.6	-1.3	1	x	x	x	x	-0.3
COc1ccc(OC)c(NC(=O)C(C)Oc2ccc(Br)cc2)c1 (stereo not given)	2.9	1.3	-3	5.7	u	21	x	0.1
O=C(c1ccc(Cl)c(S(=O)(=O)N2CCOCC2)c1)N1CCOCC1	-1.6	1.7	-3	3.0	27	-5	x	0.4
Cc1ccc(S(=O)(=O)N2CCN(C(=O)CN3C(=O)NC4(CCCCC4)C3=O)CC2)c(C)c1	-2.5	0.2	-3	3.9	x	2	5%	-0.3
CCOc1ccc(CCNC(=O)COC(=O)c2ccc(C)c([N+](=O)[O-])c2)cc1OCC	-1.8	-40	x	5.5	-2	-5	4%	1.0
C=CCn1c(CC(=O)Nc2cccc(OC)c2)nnc1SCC(=O)NC1CCCCC1	x	-4.1	-16	1.1	5	3	-1%	0.5
CCc1cccc(CC)c1NC(=S)NCCc1c(C)[nH]c2ccc(C)cc12	1.6	0.1	42	-4.4	-17	u	1%	-0.1
CCc1nnc(NC(=O)c2ccc(S(=O)(=O)N3CCCC(C)C3)cc2)o1 (stereo not given)	2.9	-7.3	6	3.9	3	-42	x	-0.6
CCOc1ncccc1C(=O)Nc1nnc(C)s1	-0.4	0.3	-7	2.1	-4	24	-8%	-0.7
O=C(CNC(=O)c1ccco1)NCC(=O)OCC(=O)c1ccc(Cl)c([N+](=O)[O-])c1	2.6	-2.6	-12	-4.3	-6	-14	-8%	1.5
Cc1ccnn1CC(=O)N/N=C/c1ccc2c(c1)OCO2	x	-1.4	-3	0.2	-27	-13	x	0.4
[O-][N+]1=C(c2cccs2)CN(O)C1	x	-1.2	4	2.9	3	-2	3%	1.2
COc1cc(NC(=O)c2cccs2)c(C(=O)OCC(=O)NC(=O)NCc2ccccc2)cc1OC	x	3.5	-1	-0.9	-27	3	-10%	0.4
[O-][n+]1onc2c1CCc1c-2nc(-c2ccccc2)n1OCc1ccccc1	x	4.1	-17	u	-4	0	77µM*	0.0
Cc1c(CN2CCC(n3nccc3NC(=O)c3cccc(F)c3)CC2)cnn1C	0.1	2.3	-5	u	1	1	x	-0.1
COc1cccc(CC(NC(C)=O)C(=O)NC2CCN(S(=O)(=O)c3cccc4ccccc34)CC2)c1 (stereo not given)	x	3.4	x	0.9	23	10	u	-1.0
Cc1ccccc1N1CC(C(=O)Nc2ccc(S(=O)(=O)N3CCOCC3)cc2)CC1=O (stereo not given)	-1.4	-0.6	1	6.2	6	-5	x	0.1
O=c1oc(-c2ccco2)nc2ccccc12	x	1.8	-7	2.1	-4	-11	10%	-1.0
